Source: PubChem
AID504770: E. coli YBA685 growth inhibition, screen for V. cholerae RctB inhibitors. E. coli YBA685 rctB-dependent plasmid, OD600 growth, 3 h; active compounds read low. z-score (no concentration beside the values). 130,000 tested, 0.27% active;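 active = z-score under -2 on both plates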;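 note: wells of about 30 µL received 100 nL stock; score is relative to mean and SD of the test wells; the first replicate is given; strong numbers were not always called active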
CapD inh: CapD enzyme inhibition; purified CapD enzyme, fluorescence intensity read-out; active compounds read low; some hits fall short of the stated cut; z-score (test concentration not listed); 140,000 tested, 0.23% active;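 active = z-score under -4 in either of two replicates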;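 note: stock transfer was 100 nL into about 40 µL; score is relative to mean and spread of the plate; one replicate is shown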
Active calls of the source: *; i = inactive; . = no result given.

Each structure is followed by: AID504770, CapD inh
- CC(C)N(C(=O)CSc1nnc(Cc2csc(Nc3ccccc3)n2)o1)C(C)C
→ -0.85, .
- CCCCS(=O)c1sc2nc(-c3cccs3)cc(-c3ccccc3)c2c1N (centres undefined)
→ 2.05, 69.9
- CCCCNS(=O)(=O)c1ccc2c(c1)CCN2C(=O)CC
→ -0.65, 0.05
- C=CCOc1ccc(C(=O)NC2CC(C)(C)NC(C)(C)C2)cc1
→ -0.35, -0.33
- O=C(OCc1cc2c(cc1Br)OCO2)C1CC2CCCC(C1)C2=O (centres undefined)
→ 0.85, .
- CCc1ccc(-c2csc3ncn(CC)c(=O)c23)cc1
→ -0.35, .
- CCOc1ccc2nc(N3CCC(C(=O)NCCc4c[nH]c5ccccc45)CC3)sc2c1
→ -0.1, 0.515
- COc1ccc(-c2ccnc(SCC(=O)Nc3ccccc3)n2)cc1
→ ., -0.49
- CC1(C)CC(=O)C=C(NCCCN2CCCC2=O)C1
→ -0.65, -0.08
- CCCCNC(=O)c1cc(-c2ccc3c(c2)OCO3)on1
→ -0.45, 0.67
- COc1ccc2cc3cc(C(=O)NCC4COc5ccccc5O4)sc3nc2c1 (centres undefined)
→ 0.25, 0.04
- O=C(O)c1ccccc1-c1nc2ccccc2s1
→ -0.25, 1.29
- COCc1cc(C)[nH]c(=O)c1C#N
→ -0.3, 79.4
- Cn1nc(C(=O)NC2CCCc3ccccc32)c2c1-c1ccccc1SC2 (centres undefined)
→ -0.4, -0.5
- Cc1ccnc(N=Cc2c(C)[nH]n(-c3ccccc3)c2=O)c1
→ -1, -0.02
- C=Cn1c2ccccc2c2nc3ccccc3nc21
→ -0.15, 0.33
- c1ccc(-c2oc3ncn4nc(-c5cccs5)nc4c3c2-c2ccccc2)cc1
→ ., 4.62
- N#CC1=C(N)OC2=C(C(=O)CC(c3ccccc3)C2)C1C1CCCCC1 (centres undefined)
→ -0.15, -0.29
- Cc1c(C(=O)N2CCC3(CC2)OCCO3)sc2ncnc(N3CCN(c4ccccn4)CC3)c12
→ ., -0.685
- COc1ccc(OC)c(C2CC(c3ccc(C)cc3)=NN2S(=O)(=O)c2ccccc2)c1 (centres undefined)
→ ., -0.12
- Oc1ccccc1C=Nc1ccc(F)cc1Br
→ ., -0.145
- Oc1ccccc1Oc1cnn(-c2ccccc2)c1-c1ccccc1
→ 0.15, 5.21
- O=C(CSc1ccc2ccccc2c1)Nc1ccccc1N1CCOCC1
→ 0.15, -0.35
- Cc1ccc(C(=O)Nc2ccc(Cl)cn2)cc1
→ -0.55, 0.205
- N#Cc1c(-c2ccco2)cc(-c2ccccc2)nc1SCCN1C(=O)c2ccccc2C1=O
→ 0.25, -0.56
- CCCCC(=O)Nc1cccc2nc(C)ccc12
→ -0.7, 1.73
- C=Cn1c2ccccc2c2cc(I)ccc21
→ -0.2, -0.045
- O=C(NCc1cccc(C(F)(F)F)c1)c1cc2cccc3c2n(c1=O)CC3
→ ., 0.37
- N#Cc1ccsc1NC(=O)CCC(=O)O
→ -0.85, 0.66
- COc1ccc(/C=C2\CCc3ccccc3C2=O)cc1Cn1cccn1
→ -0.45, -0.375

Reformatted with bars between the fields: part of the list above.
SMILES | AID504770 | CapD inh
CC(C)N(C(=O)CSc1nnc(Cc2csc(Nc3ccccc3)n2)o1)C(C)C | -0.85 | .
CCCCS(=O)c1sc2nc(-c3cccs3)cc(-c3ccccc3)c2c1N (centres undefined) | 2.05 | 69.9
CCCCNS(=O)(=O)c1ccc2c(c1)CCN2C(=O)CC | -0.65 | 0.05
C=CCOc1ccc(C(=O)NC2CC(C)(C)NC(C)(C)C2)cc1 | -0.35 | -0.33
O=C(OCc1cc2c(cc1Br)OCO2)C1CC2CCCC(C1)C2=O (centres undefined) | 0.85 | .
CCc1ccc(-c2csc3ncn(CC)c(=O)c23)cc1 | -0.35 | .

Other results.
Each structure is followed by: AID504770, CapD inh
- CCCCc1ccc(NC(=O)Nc2ccc(N3CCN(C)CC3)cc2)c(C)c1
→ 2.25, -1.07
- C=CC[N+]1(CC#Cc2ccccc2)CCCCC1
→ 0.55, 0.84
- C=CCn1nnnc1SCC(=O)c1ccc(OC)cc1
→ -0.25, -0.02
- Cc1ccnc(SCC(=O)O)n1
→ 1.35, .
- COc1cccc(OCC(O)CN2CCc3ccccc3C2)c1 (centres undefined)
→ -0.35, -0.27
- CCOc1ccc(NC(=O)CS(=O)(=O)c2ccccc2)cc1
→ 0.15, -0.325
- Cc1ccsc1C(=O)N(C)Cc1ccc2c(c1)OCCO2
→ 0.3, .
- CS(=O)(=O)c1cnc(-c2ccncc2)nc1-c1cccc(C(F)(F)F)c1
→ ., -0.25
- Cc1cc(SCC(=O)O)n2c(nc3ccccc32)c1C#N
→ 0.65, .
- O=C(NCCO)c1nc(NCCO)c2ccccc2n1
→ -0.75, 0.015
- CC1Cc2ccccc2N1C(=O)C12CCC(C)(C(=O)C1)C2(C)C (centres undefined)
→ -0.6, 0.39
- CCOC(=O)c1sc2nccc(N(C)C)c2c1N
→ -0.2, 10.1
- Cc1ccc(S(=O)(=O)N2c3ccc(C)cc3-c3ccccc3S2(=O)=O)cc1
→ ., 0.04
- NC(=O)N/N=C/c1ccc(Oc2ccccc2)cc1
→ 1.6, .
- O=C(O)CCSC(=S)N1CCCC1
→ 0.15, -0.09
- COc1ccc2cc(C(C)C(=O)Nc3ccc(OC(F)(F)F)cc3)ccc2c1 (centres undefined)
→ 0.35, 3.25
- NNC(=O)Oc1ccccc1
→ -0.65, -0.04
- Cn1cc(CCC(=O)N2CCc3ccccc32)c2ccccc21
→ -0.55, 0.605
- CCN(CC)S(=O)(=O)c1ccc(Cl)c(C(=O)N2CCCCCC2)c1
→ 1.35, 0.165
- CCOC(=O)Cn1c(=O)oc2ccc(C)cc21
→ -0.8, -0.37
- CC(C)(C)OC(=O)NCCNC(=O)c1ccccc1-c1ccccc1
→ ., 0.155
- O=c1oc2ccccc2n1CCOc1ccccc1Cl
→ -1.15, -0.055
- CCOC(=O)N1CCN(C(=O)c2ccc3c(=O)n(CCc4ccc(OC)c(OC)c4)c(=O)[nH]c3c2)CC1
→ -0.85, 0.035
- CN(C)C=Nc1nc(N2CCN(c3cccc(Cl)n3)CC2)c(C#N)cc1C#N
→ ., 13.7
- O=C1CCCN1CCCNc1nc2ccccc2n2nnnc12
→ -0.6, 113
- COc1cccc(-n2nnc3c(=O)n(Cc4ccc(C)cc4)cnc32)c1
→ 0, -0.9
- CCC(CO)NC(=O)CCOC(Cc1cnccn1)c1ccc(C(F)(F)F)cc1 (centres undefined)
→ ., -0.525
- CCOC(=O)CC1=C(C(=O)OCC)C(c2cccc(Cl)c2Cl)C(C#N)=C(N)O1 (centres undefined)
→ ., -0.035
- COc1ccc(-c2csc(NC(=O)CN3CCCC3c3cccs3)n2)cc1 (centres undefined)
→ -0.15, .
- O=C(O)c1c(CNCCc2c[nH]c3ccccc23)c2ccccc2n1Cc1ccccc1
→ -1.4, 0.285

Part of the list above in order of number of heavy atoms, falling.
Each structure is followed by: AID504770, CapD inh
- CCOc1ccc(NC(=O)CS(=O)(=O)c2ccccc2)cc1
→ 0.15, -0.325
- Cc1cc(SCC(=O)O)n2c(nc3ccccc32)c1C#N
→ 0.65, .
- CCOC(=O)c1sc2nccc(N(C)C)c2c1N
→ -0.2, 10.1

More structures.
Each structure is followed by: AID504770, CapD inh
- O=C(NCc1ccsc1)c1ccc2c(c1)OCCCO2
→ 0.35, 1.21
- Cn1c(-c2ccccc2)c(C(=O)COC(=O)c2ccc(-n3cnnn3)cc2)c2ccccc21
→ -0.45, .
- C=CCNc1nc(Nc2ccc([N+](=O)[O-])cc2)nc(OCC)n1
→ ., -0.42
- CCOc1cccc2cc(C(N)=O)/c(=N/c3sc4c(c3C#N)CCCC4)oc12
→ ., -0.13
- O=C(Oc1ccc2c3c(c(=O)oc2c1)CCC3)c1ccccc1
→ -0.8, 0.645
- O=C(/C=C/c1cccs1)Nc1ccc(-c2nnc3n2CCCCC3)cc1
→ -0.85, -3.17
- O=C(OCC(=O)C12CC3CC(CC(C3)C1)C2)C1=COCCO1
→ 0.15, .
- CC(C)c1ccc(N2CC(C(=O)O)CC2=O)cc1 (centres undefined)
→ -0.85, -0.19
- COc1ccc(NC(=O)COCC(=O)O)cc1OC
→ 1.35, -1.86
- CCCS(=O)(=O)c1csc(C(=O)OC)c1N
→ 0.15, 31.3
- CCN(CC)Cc1nc2c(c(=O)[nH]1)C1(CCCC1)Cc1ccccc1-2
→ -0.3, -0.855
- Cc1cc(C)nc(NS(=O)(=O)c2ccc(N3C(=O)c4ccc(C(=O)O)cc4C3=O)cc2)n1
→ -0.3, 0.56
- CCSc1nnc(NC(=O)CSc2cn(CCNC(=O)c3ccc(OC)cc3)c3ccccc23)s1
→ -0.1, -0.115
- O=C(COCc1cc(-c2ccco2)on1)NCc1ccccc1
→ -0.4, -0.245
- Oc1ccccc1-c1cc(-c2cccs2)[nH]n1
→ 1.35, -0.135
- COc1cccc(OCC(=O)NCC(=O)O)c1
→ -0.45, i
- COc1cccc2cc(C(=O)Nc3cccc4c3C(=O)c3ccccc3C4=O)c(=O)oc12
→ ., -0.205
- CCOC(=O)c1c(-c2ccc(OC)cc2)cn2ccccc12
→ 0.15, 47.9
- COc1ccc(COc2ccsc2C(=O)Nc2ccc(F)cc2F)cc1
→ ., -0.05
- COc1ccc(S(=O)(=O)n2c([N+](=O)[O-])cnc2C)cc1OC
→ ., -0.05
- Nc1cc(C(=O)OCCOc2ccc(Br)cc2)ccc1Cl
→ -0.5, 63.1
- CC1(C)CC(=O)C(C(C2=C(O)CC(C)(C)CC2=O)c2cc(Br)ccc2O)C(=O)C1 (centres undefined)
→ ., 0.37
- CCCC1COC(Cn2cncn2)(c2ccc(C)cc2)O1 (centres undefined)
→ 0.55, 0.425
- Cc1c(C)c(C2=NON3N(C(=O)c4ccccc4)c4ccccc4N23)c(C)c(C)c1Cl
→ ., -0.085
- CCSc1ccc(-c2noc(-c3cccc(C(F)(F)F)c3)n2)cn1
→ ., 0.24
- CN(C)CCN=CC1=C(O)CC(C)(C)CC1=O
→ -0.35, 0.095
- Cc1cc(SCC(=O)N(C)C)n2c(nc3ccccc32)c1C#N
→ 1.4, .
- Cc1c(-c2cccc(Cl)c2)nc2ccccc2c1C(=O)OCC(N)=O
→ 1.1, 1.16
- O=C(Nn1cnc2ccccc2c1=O)C1CCCCC1
→ 1.6, -0.39
- CCC1CCCCN1C(=O)CSc1ncccc1C(=O)O (centres undefined)
→ -0.1, 0.715
- COc1ccc2c(c1)C(C)(C)C1(C=Cc3c(ccc4ccccc34)O1)N2C (centres undefined)
→ ., -0.42
- CCC(/C=N/N1C(=O)c2ccccc2C1=O)CC
→ -0.1, .
- Fc1ccc(C(c2nnc(-c3ccccc3)o2)N2CCc3ccccc32)cc1 (centres undefined)
→ 0.25, 0.055
- CC(=O)Nc1nc(SCc2ccccc2Cl)n[nH]1
→ -0.45, .
- CCOC(=O)C1(C)/C(=N\Nc2ccc(Br)cc2)C(=O)C(=O)N1c1ccccc1 (centres undefined)
→ ., -0.77
- O=S(=O)(c1cc(Cl)c(Cl)cc1Cl)N1CCCCC1
→ ., -0.25
- CCOC(=O)c1cc(-c2ccccc2)n(CC(=O)N(C)c2ccc(C)cc2)c1C
→ 1.9, -0.975
- Cc1nc(Cl)c(C(=O)N(C)c2ccccc2)c(C)c1Cl
→ 1.4, 0.185
- O=c1oc2ccccc2cc1-c1cn2cc(Cc3ccccc3Cl)sc2n1
→ -0.1, -0.015
- CC(C)(C)SCC(=O)Nc1cc(S(C)(=O)=O)ccc1Cl
→ -0.8, .
- NNC(=O)CCC(=O)Nc1ccccc1
→ -0.3, .
- Cc1cccc(C(=O)NCC(=O)OCc2ccc(F)cc2)c1
→ -0.35, 0.235
- CSc1nccc2ccccc12
→ -0.1, 0.545
- COCCN1C=C(C(=O)OC)C(c2ccsc2)C(C(=O)OC)=C1
→ 0, 43.2
- NCCSCc1ccco1
→ -0.85, 0.6
- Cc1ccc(-n2nc(C)c3c(C)cc(=O)oc32)cc1C
→ -0.45, -0.075
- CCc1ccccc1-n1c(=O)oc2ccc(Cl)cc2c1=O
→ -0.45, 6.63
- O=c1/c(=C/c2ccccc2Cl)sc2nnc(-c3ccccc3)n12
→ ., 0.045
- Cc1ccc(SCC(=O)Nc2nnc(CCS(=O)(=O)c3ccc(Br)cc3)s2)cc1
→ ., -0.96
- COCC(C)NC(=O)Cn1nc(C)c(NC(=O)c2cc(-c3ccccc3F)no2)c1C (centres undefined)
→ 1.2, -0.405
- Cc1noc(C)c1COC(=O)CCN1c2ccccc2Sc2ccccc21
→ 1.8, .
- COC(=O)Cc1cn(-c2ncc(C(F)(F)F)cc2Cl)c2ccccc12
→ 1.15, 0.085
- O=S(=O)(Nc1ccccc1OC(F)F)c1ccc2nnn(O)c2c1
→ 1.3, .
- CC(=O)Nc1ccc(S(=O)(=O)NC2CCCC2)cc1
→ -0.8, -0.37
- O=C(NCCc1ccccc1)C1CC(=O)N(c2ccc(F)c(Cl)c2)C1 (centres undefined)
→ -0.7, -0.325
- CCN1C(=O)C2C(c3cccs3)NC(C)(C(=O)OC)C2C1=O (centres undefined)
→ -0.05, .
- O=C(Oc1ccccc1)c1cc2cc(Br)ccc2oc1=O
→ 0, -0.35
- CCOc1ccc(CN(Cc2ccco2)C(=O)NC2CCN(Cc3ccccc3Sc3ccc(Cl)cc3)C2)cc1OC (centres undefined)
→ ., 0.06
- CN(Cc1nc(-c2ccccc2)no1)C(=O)C12CC3CC(CC(C3)C1)C2
→ -0.1, .
- O=C(O)/C=C/c1ccc(I)o1
→ 0.75, -0.57
- CC(C)(C)C(=O)Nc1cccc(C(=O)N/N=C/c2ccc(C(F)(F)F)cc2F)c1
→ ., -0.535
- Cc1noc(C)c1CSc1ncccc1C(=O)N(C)CCOc1ccc(Br)cc1
→ 1.65, .
- CC1O[C@H](O[C@]2(O[C@H]3CC[C@@]4(C)C(=CC[C@H]5[C@@H]6C[C@H]7[C@H]([C@H](C)[C@H]8CC[C@H](C)CN87)[C@@]6(C)CC[C@@H]54)C3)C[C@@H](O[C@@H]3OC(CO)[C@@H](O)[C@@H](O)C3O)[C@@H](O)C(CO)O2)C(O)[C@@H](O)[C@H]1O (some centres undefined)
→ ., -2.06
